Cruzain inh Det = inhibitors of Trypanosoma cruzi cruzain with detergent; purified cruzain, Z-FR-AMC fluorescence, 0.01% Triton; AID 1478; Potency, µM, without a hit: max response, negative = inhibition, most hits filed as inhibitors; hit rate 0.43% among 200,000; P25779; active = well fitted curve in the direction sought with a large enough effect; inconclusive = small, poorly fitted or top-dose-only effect, or another doubt; inactive = no such curve, though single readings can be large; an effect the other way counts as inactive or inconclusive;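 note: plate controls were neutral wells for no effect and buffer without enzyme for full effect; nearly all actives have a fitted effect of over 40% in size; top concentration of the series not given in the record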
Target sequence (P25779 123-467 limits assumed): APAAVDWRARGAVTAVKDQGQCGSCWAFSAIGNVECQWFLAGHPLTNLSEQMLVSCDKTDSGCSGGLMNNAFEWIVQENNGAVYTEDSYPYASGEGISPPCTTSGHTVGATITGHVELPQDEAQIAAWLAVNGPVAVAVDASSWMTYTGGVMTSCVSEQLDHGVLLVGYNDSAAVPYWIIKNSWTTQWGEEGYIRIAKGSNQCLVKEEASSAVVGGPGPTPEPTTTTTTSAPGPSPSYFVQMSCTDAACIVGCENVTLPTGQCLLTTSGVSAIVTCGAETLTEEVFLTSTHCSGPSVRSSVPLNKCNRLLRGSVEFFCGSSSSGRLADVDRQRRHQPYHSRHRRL
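Compounds were screened in titration against cruzain (1.5 nM) with 0.01% Triton X-100 to counter colloidal aggregation. Activity was the AMC fluorescence increase over 60 s after adding 2 uM Z-FR-AMC at pH 5.5.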
NS1 inh = blocks influenza NS1 protein function | Potency, µM (highest dose often 46.1 µM), for the others: top-dose activity, positive = more growth | S. cerevisiae slowed by influenza A NS1, growth recovery by OD600 | hit rate 0.4% among 270,000 | AID 2326; note: actives are rising curves; nearly all actives have a fitted effect of over 50% in size
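A cell-based growth assay was used: compounds that relieve NS1-induced slow growth of budding yeast raise OD600. Assay medium was yeast nitrogen base with ammonium sulphate and -URA supplement, pH 6.0, with 2% galactose.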
StopGo reporter = FMDV 2A StopGo reporter, luciferase signal; hit rate 1.2% among 410,000; Potency, µM (top dose mostly 57.9 µM), for inactives: at the top dose signal change, negative = less light; human cells with a luciferase reporter of 2A StopGo recoding; control for the full effect not named in the record; active = well fitted falling curve with a large enough effect; inconclusive = small, poorly fitted or top-dose-only effect; inactive = no such curve, though single readings can be large or run the other way; tested in HEK293T cells; note: % is set by controls: 0 for no effect and ±100 for the full control effect; nearly all actives have a fitted effect of over 45% in size; luciferase light after 4 h
LASV entry inh = Lassa virus entry inhibition; AID 540256; Lassa virus pseudotype entry inhibition, cell reporter; control for the full effect not named in the record; Potency, µM (doses to about 37.9 µM), for inactives: at the highest dose activity change, negative = inhibition, hits mostly inhibitors; hit rate 1.2% among 300,000; active means well fitted inhibition curve with a large enough effect; inconclusive means small, poorly fitted or top-dose-only effect, or effect the other way; inactive means flat fitted curve, though single readings scatter; tested in HEK293 cells; note: % is set by controls: 0 for no effect and ±100 for the full control effect; nearly all actives have a fitted effect of over 50% in size; luciferase read-out
Marburg entry inh = Marburg virus entry inhibition; hit rate 1.8% among 300,000; Potency, µM (top dose mostly 37.8 µM), for inactives: top-dose activity change, negative = inhibition, hits mostly inhibitors; Marburg virus pseudotyped entry inhibition, cell reporter; control for the full effect not named in the record; about a third of the inactives were read at about 46 µM; active = well fitted inhibition curve with a large enough effect; inconclusive = small, poorly fitted or top-dose-only effect, or effect the other way; inactive = flat fitted curve, though single readings scatter; tested in HEK293 cells; about a fifth of its hits are not listed in these tables; note: % is set by controls: 0 for no effect and ±100 for the full control effect; luciferase read-out
SARS PLpro yeast = SARS-CoV PLP inhibition in yeast. S. cerevisiae expressing SARS-CoV PLpro, growth rescue; control for the full effect not named in the record. Potency, µM (doses to about 32.9 µM), for inactives: at the highest dose activity, positive = growth rescue. hit rate 0.19% among 330,000; note: 0% is about no effect; nearly all actives have a fitted effect of over 55% in size; growth read by luminescence after 48 h
Cruzain inh noDet = blocks cruzain activity in detergent-free assay; P25779; purified cruzain, Z-FR-AMC fluorescence, no detergent; Potency, µM, without a hit: max response, negative = inhibition, most hits filed as inhibitors; hit rate 2.3% among 200,000; active = well fitted curve in the direction sought with a large enough effect; inconclusive = small, poorly fitted or top-dose-only effect, or another doubt; inactive = no such curve, though single readings can be large; an effect the other way counts as inactive or inconclusive;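 note: plate controls were enzyme without inhibitor for no effect and buffer without enzyme for full effect; nearly all actives have a fitted effect of over 40% in size; top concentration of the series not given in the record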
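Detergent-free condition (0.00005% Triton X-100) in acetate buffer pH 5.5 with DTT. 1.5 nM enzyme and compound were pre-mixed 15 min, then 2 uM Z-FR-AMC substrate added; reaction progress from fluorescence change between first and third reads (60 s).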
RE007 growth inh = less growth of the S. pombe RE007 Vpr strain | Potency, µM (series often up to 92.2 µM), for the others: at the highest dose activity change, negative = less growth | S. pombe RE007 Vpr strain, BacTiter-Glo ATP luminescence, 24 h; control for the full effect not named in the record | hit rate 0.21% among 360,000; active = well fitted falling curve with a large enough effect; inconclusive = small, poorly fitted or top-dose-only effect; inactive = no such curve, though single readings can be large or run the other way;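 note: % is set by controls: 0 for no effect and ±100 for the full control effect; nearly all actives have a fitted effect of over 50% in size; the assay follows cell death caused by Vpr and the record does not say whether a fall means rescue or toxicity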
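Fission yeast RE007 carrying one integrated HIV-1 vpr copy, seeded at OD 0.01 in PMG+AL medium with 23 nL pinned compound. Grown 24 h at 30 degrees; viability read by BacTiter-Glo luminescence after 5 min.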
Numbers without * were called inactive; ? = inconclusive; nt = not tested or not shown; [ ] = remark or other dose. Unless noted, calls come from the whole dose curve; as a rule, active means well fitted rising curve with a large enough effect; inconclusive means small, poorly fitted or top-dose-only effect; inactive means no such curve, though single readings can be large or run the other way. Potency is the fitted concentration of half-maximal effect.

SMILES	Cruzain inh Det	NS1 inh	StopGo reporter	LASV entry inh	Marburg entry inh	SARS PLpro yeast	Cruzain inh noDet	RE007 growth inh
C=CCS(=O)(=O)N1CCCC(N(C)CCc2ccc(OC)c(OC)c2)C1 (stereo not given)	nt	-1%	4%	nt	nt	-5%	nt	-13%
O=C(Nc1ccc2c(c1)CCC2)c1cccc(S(=O)(=O)N2CCN(c3ccc(F)cc3)CC2)c1	-1.9%	17%	-20%	?	?	-4%	20µM*	5%
N#Cc1cc(-c2ccccc2)nc(Oc2ccc(Cl)cc2)n1	?	-3%	?	-3%	-2%	12%	-28%	-2%
COC(=O)c1cn(CCOc2ccccc2OC)c2ccccc12	-8.3%	-7%	?	-17%	?	1%	9%	-24%
Cc1ccc(NC(=O)C2CCCN2C(=O)OC(C)(C)C)cc1C (stereo not given)	nt	-7%	-19%	nt	nt	2%	nt	14%
Cc1ccc(S(=O)(=O)N[C@H](C(=O)OCC(=O)N2N=C(c3ccc(Cl)cc3)CC2c2ccco2)C(C)C)cc1 (stereo not given in full)	-8.5%	30%	0%	?	?	17%	-10%	3%
Cc1ccc(Oc2c(C=O)c3ccccc3n2C)cc1	0.6%	-28%	-28%	-5%	3%	-5%	-8%	-11%
CC1CCCC(NC(=O)COC(=O)CCC(=O)c2cccs2)C1C (stereo not given)	nt	nt	-6%	6%	-1%	-7%	nt	-3%
Cc1ccccc1NC(=S)Nc1ccc(Br)cc1	2.2%	-16%	20%	-2%	24%	-57%	-10%	-10%
COc1ccc(-n2nc3c(c2NC(=O)Cc2cccc(C)c2)CS(=O)C3)cc1 (stereo not given)	-0.8%	9%	-21%	nt	nt	15%	11%	-10%
CCOc1ccc(C(C)=O)cc1CSc1nnc(-c2ccncc2)n1CCOC	nt	nt	13%	8%[46.1 µM]	2%[46.1 µM]	-2%	nt	12%
OC(CNC1CCCCC1)C(F)(F)F (stereo not given)	nt	9%	6%	10%[46.1 µM]	2%[46.1 µM]	0%	nt	-13%
Cc1n[nH]c(C)c1N=Nc1ccc(Br)cc1	nt	0%	35%[activator]	?	?	-16%	nt	?
CN(C)c1ccc(CSc2ccccc2)cc1	nt	nt	76%[activator]	7%	5%	nt	nt	81%
CN(C)c1nnnn1-c1ccc(Cl)cc1	nt	nt	-14%	6%	27%[46.1 µM]	-2%	nt	3%
COc1cc(C=C2C(=O)c3ccccc3C2=O)cc(OC)c1	nt	1%	-9%	nt	nt	1%	nt	-5%
Cc1ccc(Nc2ccccc2)nn1	nt	3%	12%	17%	6%	-1%	nt	6%
CC(O)[C@H]1CN=C(N)N1CCc1cc(C(F)(F)F)cc(C(F)(F)F)c1 (stereo not given in full)	nt	-1%	-2%	nt	nt	3%	nt	-4%
CCOc1ccc(S(=O)(=O)N(C)CC(=O)NCc2ccccn2)cc1Cl	nt	1%	-5%	8%	?	4%	nt	4%
Cc1cc(Cl)ccc1NS(=O)(=O)c1c(C)[nH]c(=O)[nH]c1=O	nt	3%	-19%	nt	nt	3%	nt	-1%
N=C1N(c2ccccc2)C(=S)C(=Nc2ccccc2)N1c1ccccc1	nt	nt	9%	-8%[46.1 µM]	-3%	nt	nt	?
CCC(C)NC(=O)CCS(=O)(=O)c1ccc2c(c1)n(C)c(=O)c(=O)n2C (stereo not given)	-6.5%	8%	0%	nt	nt	-2%	-2%	-16%
CC(=O)c1cccc(NC(=O)CSc2nc(N3CCCCC3)nc(N3CCCCC3)n2)c1	nt	-1%	1%	9%[46.1 µM]	0%[46.1 µM]	-1%	nt	5%
C=C(C)CNC(=O)c1ccc2nc(Cc3ccc(OC)cc3)oc2c1	nt	-4%	16%	6.3µM*	-17%	0%	nt	-13%
COc1ccc(-c2cc(C)no2)cc1S(=O)(=O)N1CCCCC1	nt	-6%	2%	nt	nt	26%	nt	-6%
O=S(=O)(c1cccc(C(F)(F)F)c1)N1CCC(CO)(CCCc2ccccc2)CC1	nt	-63%	-21%	nt	nt	-4%	nt	14%
CC(=O)C1=C(NC(=O)c2ccccc2F)C[C@@H]2[C@H]1C2(C)C	-8.2%	-11%	0%	-8%	?	-2%	0%	?
Cn1c(=O)c2c(nc(Oc3ccccn3)n2C)n(C)c1=O	1.7%	?	nt	nt	1%	-2%	-7%	nt
CCCCCn1c(=O)[nH]c2cc(C(=O)Nc3cc(C)cc(C)c3)ccc2c1=O	-0.6%	nt	-7%	0%[46.1 µM]	22%[46.1 µM]	nt	4%	nt
COc1ccc(CNC(=O)Cn2nc(-c3ccc4c(c3)OCCO4)ccc2=O)cc1	-20%	-9%	16%	-11%	?	-4%	4%	0%
CC1CC1C(=O)OCC(=O)Nc1ccc(S(=O)(=O)N2CCOCC2)cc1 (stereo not given)	nt	nt	3%	14%	7%	3%	nt	1%
Cc1cc(=O)[nH]c(-c2cccnc2)n1	nt	nt	-17%	-9%	?	0%	nt	16%
CCOC(=O)/C=c1\s/c(=C\c2ccc(C(F)(F)F)cc2)c(=O)n1CC(=O)NCc1ccco1	-4.2%	7%	-1%	6%	?	9%	?	9%
CC1CCCN(Cc2c(O)ccc3c4c(c(=O)oc23)CCCC4)C1 (stereo not given)	nt	-5%	-9%	nt	nt	-1%	nt	-7%
COC(=O)C1=C(SC)N(c2ccccc2)C(c2ccccc2)CC1=O (stereo not given)	-5.8%	8%	0%	2%	4%	14%	1%	5%
O=C1N(Cc2ccccc2)c2ccccc2C12OCCO2	nt	-18%	-3%	-23%	?	-11%	nt	7%
O=C(NCCO)C(=O)Nc1cc2c3c(c1)CC(=O)N3CCC2	nt	-5%	-13%	nt	nt	3%	nt	2%
CCc1nn(CC(=O)NCCc2ccc(Cl)cc2)c(=O)c2cc3c(OC)cccc3n12	-0.9%	nt	-20%	nt	4%[46.1 µM]	nt	5%	nt
Cc1cc(C)n(CC(=O)N2CCCC(N3CCN(c4ccccc4C)CC3)C2)n1 (stereo not given)	nt	7%	?	0%	-29%	3%	nt	0%
Cc1ccc(/C(O)=C2/C(=O)C(=O)OC2c2ccc(Cl)cc2)cc1 (stereo not given)	-2.0%	22%	nt	-3%	9%	?	4%	-2%
O=C(CSc1ccccc1)NNC(=O)c1ccncc1	nt	nt	-23%	25%	27%[46.1 µM]	2%	nt	23%
CCOc1ccc(OCCOC(=O)CN(C)S(=O)(=O)c2ccc(NC(C)=O)cc2)cc1	nt	nt	15%	4%	8%	?	nt	3%
O=C1C(Cl)=C(Nc2ccc(F)cc2)C(=O)N1CCc1ccccc1	-6.6%	-1%	21%	21%	?	1%	-1%	11%
Cc1ccc(-c2cnn(-c3cccc([N+](=O)[O-])c3)c2N)cc1	0.5%	-8%	42%[activator]	18%	?	-2%	8%	-9%
O=C(/C=C\N1CCOCC1)c1ccc(Br)cc1	nt	-98%	64%[activator]	5%	-24%	-16%	nt	-28%
COc1ccc(OC)c(N(CC(=O)N2CCN(Cc3ccccc3)CC2)S(C)(=O)=O)c1	nt	-4%	-23%	nt	nt	-2%	nt	-6%
O=C(O)c1ccccc1NC(=O)N1CCOCC1	nt	nt	-14%	11%	18%[46.1 µM]	-2%	nt	3%
COc1ccc(-n2c(COc3cccc4ccccc34)nnc2SCC#N)cc1	-6.7%	11%	-20%	?	?	-5%	?	7%
CCOC(=O)c1sc2ccccc2c1S(=O)(=O)N1CCN(c2cccc(C)c2)C(C)C1 (stereo not given)	-2.7%	nt	-14%	?	nt	nt	?	nt
CN(C)S(=O)(=O)c1ccc(C(=O)OCC(=O)Nc2cccnc2Cl)cc1	nt	nt	-4%	31%	?	0%	nt	1%
Cc1ccc(NC(=O)NN2CCOCC2)cc1	nt	3%	25%	nt	nt	-1%	nt	29%
O=C(C1=C(O)C(=O)N(c2ncccn2)C1c1cccs1)c1ccco1 (stereo not given)	-6.2%	10%	18%	-4%	5%	4%	-7%	-17%
CCC1(c2ccccc2)NC(=O)N(CC(=O)Nc2ccc(S(=O)(=O)Nc3ncccn3)cc2)C1=O (stereo not given)	nt	nt	-20%	1%	12%	-3%	nt	0%
C/C(=N\NC(=O)c1ccc(Cl)cc1)c1cccs1	nt	nt	-48%	3.5µM*	?	-8%	nt	-9%
COCCn1c(N)c(Sc2ccc(C)cc2)c(=O)[nH]c1=O	nt	2%	10%	1%	24%[46.1 µM]	1%	nt	3%
Cc1cccc(N(CC(=O)N2CCN(c3ccccc3F)CC2)S(C)(=O)=O)c1	nt	-1%	-2%	-14%[46.1 µM]	?	1%	nt	-5%
N#C/C(=C\c1c(Oc2ccccc2F)nc2ccccn2c1=O)C(=O)NC1CCS(=O)(=O)C1 (stereo not given)	nt	-16%	-29%	-6%[46.1 µM]	-19%[46.1 µM]	0%	nt	12%
CN(C)S(=O)(=O)N1CCC(Oc2cccc(C(=O)N3CCSCC3)c2)CC1	nt	1%	-21%	6%	-1%	-3%	nt	-9%
CC(C)c1ccc(-c2nc(C(N)=O)c3c(n2)n(-c2ccc4c(c2)OCO4)c(=O)n3C)cc1	-1.9%	nt	0%	-9%[46.1 µM]	nt	nt	8%	nt
COCCn1c(SCC(=O)Nc2ccc(F)cc2)nc2ccccc2c1=O	nt	-13%	56%[activator]	nt	nt	-1%	nt	0%

(further entries)
SMILES	Cruzain inh Det	NS1 inh	StopGo reporter	LASV entry inh	Marburg entry inh	SARS PLpro yeast	Cruzain inh noDet	RE007 growth inh
Cc1ccc(S(=O)(=O)c2c(Nc3cc(F)ccc3F)sc(C(=O)c3ccc(F)cc3)c2N)cc1	-5.1%	nt	?	?	?	nt	3.2µM*	nt
O=C(NS(=O)(=O)Oc1ccc(F)c(Cl)c1)OC[C@@H]1CCCN2CCCCC12 (stereo not given in full)	nt	nt	41%[activator]	9%[46.1 µM]	1%[46.1 µM]	-1%	nt	-8%
CC(C)CCNC(=O)CN(C(=O)CCC(=O)Nc1ccccn1)c1ccc2c(c1)OCCO2	0.8%	-9%	-8%	-18%	-24%	-7%	-11%	10%
C/C(=N\NC(=O)CN(c1ccccc1Br)S(C)(=O)=O)c1cccs1	nt	6%	-15%	-1%	-3%[46.1 µM]	1%	nt	-25%
COC(F)(C(=O)Nc1ccc2c(c1)C(=O)NC2=O)C(F)(F)F (stereo not given)	2.1%	3%	-2%	-7%	-5%	2%	-6%	1%

Source: PubChem BioAssay (National Center for Advancing Translational Sciences (NCATS))
